Assay outcomes as filed in PubChem.
Marburg entry inh = Marburg virus entry inhibition | Marburg virus pseudotyped entry inhibition, cell reporter; control for the full effect not named in the record; about a third of the inactives were read at about 46 µM | Potency, µM (top dose mostly 37.8 µM), for the others: top-dose activity change, negative = inhibition, usual class: inhibitors | 1.8% of 300,000 active; active = well fitted inhibition curve with a large enough effect; inconclusive = small, poorly fitted or top-dose-only effect, or effect the other way; inactive = flat fitted curve, though single readings scatter; tested in HEK293 cells; about a fifth of its hits are not listed in these tables; also: % is scaled to controls: 0 for no effect and ±100 for the full control effect; luciferase read-out
RE007 growth inh = less growth of the S. pombe RE007 Vpr strain | AID 651644 | 0.21% of 360,000 active | Potency, µM (top dose mostly 92.2 µM), for the others: at the top dose activity change, negative = less growth | S. pombe RE007 Vpr strain, BacTiter-Glo ATP luminescence, 24 h; control for the full effect not named in the record; active = well fitted falling curve with a large enough effect; inconclusive = small, poorly fitted or top-dose-only effect; inactive = no such curve, though single readings can be large or run the other way;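 also: % is scaled to controls: 0 for no effect and ±100 for the full control effect; nearly all actives have a fitted effect of over 50% in size; the assay follows cell death caused by Vpr and the record does not say whether a fall means rescue or toxicity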
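Fission yeast strain RE007, carrying one chromosomally integrated HIV-1 vpr copy, was seeded at OD 0.01 in PMG+AL medium with 23 nL pinned compound. After 24 h at 30 °C and 99% humidity, viability was read by BacTiter-Glo luminescence.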
NS1 function inh = blocks influenza NS1 protein function. S. cerevisiae slowed by influenza A NS1, growth recovery by OD600. Potency, µM (doses to about 46.1 µM), inactives show top-dose activity, positive = more growth. 0.4% of 270,000 active; active means well fitted rising curve with a large enough effect; inconclusive means small, poorly fitted or top-dose-only effect; inactive means no such curve, though single readings can be large or run the other way; also: nearly all actives have a fitted effect of over 50% in size
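Growth recovery, yeast-based: influenza A NS1 expressed in S. cerevisiae causes slow growth, and suppressors are detected by OD600. The parent strain without NS1 is used as positive control.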
LASV entry inh = blocks Lassa virus binding to or entry into cells; Lassa virus pseudotype entry inhibition, cell reporter; control for the full effect not named in the record; Potency, µM (series often up to 37.9 µM), inactives show at the highest dose activity change, negative = inhibition, usual class: inhibitors; 1.2% of 300,000 active; active means well fitted inhibition curve with a large enough effect; inconclusive means small, poorly fitted or top-dose-only effect, or effect the other way; inactive means flat fitted curve, though single readings scatter; tested in HEK293 cells; also: % is scaled to controls: 0 for no effect and ±100 for the full control effect; nearly all actives have a fitted effect of over 50% in size; luciferase read-out
2A StopGo = FMDV 2A StopGo reporter, luciferase signal | human cells with a luciferase reporter of 2A StopGo recoding; control for the full effect not named in the record | Potency, µM (titrated, usually from 57.9 µM), for inactives: top-dose signal change, negative = less light | 1.2% of 410,000 active; active = well fitted falling curve with a large enough effect; inconclusive = small, poorly fitted or top-dose-only effect; inactive = no such curve, though single readings can be large or run the other way; tested in HEK293T cells; also: % is scaled to controls: 0 for no effect and ±100 for the full control effect; nearly all actives have a fitted effect of over 45% in size; luciferase light after 4 h
Cruzain inh Det = cruzain (T. cruzi) inhibition with detergent | P25779 | purified cruzain, Z-FR-AMC fluorescence, 0.01% Triton | Potency, µM, without a hit: max response, negative = inhibition, usual class: inhibitors | 0.43% of 200,000 active | AID 1478;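 also: plate controls were neutral wells for no effect and buffer without enzyme for full effect; nearly all actives have a fitted effect of over 40% in size; top concentration of the series not given in the record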
Target sequence (P25779 123-467 limits assumed): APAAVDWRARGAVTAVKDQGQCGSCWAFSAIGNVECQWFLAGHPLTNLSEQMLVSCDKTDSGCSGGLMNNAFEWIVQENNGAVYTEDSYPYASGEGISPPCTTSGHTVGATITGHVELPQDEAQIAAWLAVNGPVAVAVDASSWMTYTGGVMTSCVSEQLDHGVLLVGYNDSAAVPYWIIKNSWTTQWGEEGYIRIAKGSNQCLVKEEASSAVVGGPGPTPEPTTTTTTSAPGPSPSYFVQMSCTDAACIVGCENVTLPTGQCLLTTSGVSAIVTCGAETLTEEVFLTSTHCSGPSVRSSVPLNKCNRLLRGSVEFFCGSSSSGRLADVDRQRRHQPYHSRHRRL
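Enzyme 1.5 nM, Z-FR-AMC 2 uM, NaOAc 100 mM pH 5.5, DTT 5 mM, Triton X-100 0.01%; 15 min RT compound preincubation; kinetic ex360/em450, 60 s delta.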
Cruzain noTriton = inhibitors of Trypanosoma cruzi cruzain without detergent | AID 1476 | purified cruzain, Z-FR-AMC fluorescence, no detergent | Potency, µM, for inactives: max response, negative = inhibition, hits mostly inhibitors | 2.3% of 200,000 active;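 also: plate controls were enzyme without inhibitor for no effect and buffer without enzyme for full effect; nearly all actives have a fitted effect of over 40% in size; top concentration of the series not given in the record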
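Purified cruzain at 1.5 nM, pre-incubated 15 min with compound at room temperature in 100 mM sodium acetate pH 5.5, 5 mM DTT, 0.00005% Triton X-100. Reaction started with 2 uM Z-FR-AMC; AMC fluorescence increase over 60 s gives rate.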
SARS PLP yeast = inhibitors of SARS-CoV papain-like protease in yeast; S. cerevisiae expressing SARS-CoV PLpro, growth rescue; control for the full effect not named in the record; Potency, µM (series often up to 32.9 µM), inactives show at the top dose activity, positive = growth rescue; 0.19% of 330,000 active; AID 485353; active means well fitted rising curve with a large enough effect; inconclusive means small, poorly fitted or top-dose-only effect; inactive means no such curve, though single readings can be large or run the other way; also: 0% is about no effect; nearly all actives have a fitted effect of over 55% in size; growth read by luminescence after 48 h
* marks the source's active call; other numbers are inactive results; ? = inconclusive; . = not tested or not shown; & = joins results of further samples; [ ] = dose if it differs, or a comment. Unless noted, calls follow the shape of the dose curve; as a rule, active = well fitted curve in the direction sought with a large enough effect; inconclusive = small, poorly fitted or top-dose-only effect, or another doubt; inactive = no such curve, though single readings can be large; an effect the other way counts as inactive or inconclusive. Potency is read from the fitted curve at half-maximal effect.

SMILES | Marburg entry inh | RE007 growth inh | NS1 function inh | LASV entry inh | 2A StopGo | Cruzain inh Det | Cruzain noTriton | SARS PLP yeast
O=C(CN1CCN(C(=O)c2ccco2)CC1)Nc1cc(C(F)(F)F)ccc1Cl | -27.4% | 36.9% | -4.5% | 2.8% | -24.6% | -3.8% | ? | 12.1%
CCOC(=O)C(C)Sc1nc(N2CCOCC2)c2c(c1C#N)CC(C)(C)OC2 (stereo not drawn) | ? | 5.8% | . | -17.5% | -23.2% | . | . | .
CCN(C(=O)COC(=O)c1c(-c2ccccc2)noc1C)c1c(N)n(Cc2ccccc2)c(=O)[nH]c1=O | -6.5% | 0.4% | -6.5% | 13.1% | -14.2% | . | . | 5.6%
Nc1nnc(SCc2ccccc2)n1-c1ccccc1 | 1.0% | -2.1% | 9.0% | -12.5% | -10.8% | -1.7% | 0.6% | -9.7%
Cc1cccc(-n2c(O)c(C=NCCCN3CCOCC3)c3ccccc3c2=O)c1 | 28.0% | -1.0% | -1.1% | 0.2% | -4.5% | -0.7% | 7.3% | -0.2%
Cc1ccc(-c2nc(CS(=O)(=O)CC(=O)Nc3cc(C)ccc3C)c(C)o2)cc1 | 7.5%[46.1 µM] | . | . | 22.5%[46.1 µM] | -8.6% | 5.7% | 1.8% | .
CC1(C)OC2C(O1)[C@@H](CO)O[C@H]2n1cnc2c(N)ncnc21 (stereo partly drawn) | . | -4.3% | 2.0% | . | 5.8% | . | . | -1.7%
Cc1ccc(C23CC4CC(CC(CC(=O)N5CCOCC5)(C4)C2)C3)cc1 | ? | 27.2% | -32.7% | 8.2µM* | ? | -3.1% | ? | -9.4%
CCOC(=O)C1CCN(S(=O)(=O)c2ccc(C(C)(C)C)cc2)CC1 | -0.7%[46.1 µM] | -18.8% | 2.3% | ? | -19.1% | . | . | -1.1%
Cc1cccc(-c2ocnc2C(=O)N2CCN(C(=O)c3cccs3)CC2)c1 | -5.1%[46.1 µM] | -1.9% | ? | -11.5%[46.1 µM] | 0.2% | . | . | 1.3%
O=C(C[n+]1ccc(C(=O)NCc2ccccc2)cc1)c1ccc(OC(F)F)cc1 | 0.7%[46.1 µM] | 6.5% | . | 0.0%[46.1 µM] | -2.6% | . | . | 1.2%
COc1ccc(C(=O)N(CCc2ccccc2)Cc2ccccc2)c(OC)n1 | ? | 4.9% | -2.6% | -7.3%[46.1 µM] | -4.1% | . | . | -5.5%
CN(c1nc2ccccc2n2c(C3CC3)nnc12)S(=O)(=O)c1ccccc1 | . | -12.0% | 3.3% | . | 6.8% | . | . | 0.6%
CCCCOc1cccc(C(=O)N(Cc2cccs2)c2ccc(OC)cc2)c1 | ? | . | . | -11.1%[46.1 µM] | -22.7% | -8.3% | -8.8% | .
N#Cc1nc(-c2ccc(F)cc2)oc1NCc1ccccc1 | . | 3.2% | -0.6% | . | 8.0% | -6.4% | 1.9% | 8.8%
COC(=O)c1cc2n(n1)CCN(Cc1ccccc1Cl)C2=O | -3.3% | -19.2% | -5.3% | 3.4% | 26.1% | 4.5% | -3.6% | 9.8%
COC(=O)c1ccc(-n2nc(C(F)(F)F)c3c2-c2ccoc2CC3)cc1 | -24.6% | -18.0% | 4.8% | -9.1% | -15.8% | -14.4% | 12.3% | -14.1%
O=c1[nH]c(=O)n(CCC2=CCCCC2)c(O)c1C=NCCN1CCNCC1 | 8.2% | 1.3% | ? | 16.6% | -1.7% | -7.5% | 18.3% | -7.5%
COc1ccc(CNC(=O)CCS(=O)(=O)c2cc3c4c(c2)CCN4C(=O)CC3)cc1 | . | . | . | 3.4%[46.1 µM] | 1.5% | -0.4% | 7.7% | .
CC1CCCCC12NC(=O)N(CC(=O)OCC(=O)c1ccc(OC(F)F)cc1OC(F)F)C2=O (stereo not drawn) | ? | 1.1% | 11.8% | 10.0% | -16.4% | . | . | 0.7%
COc1cc(C(=O)NCC2(c3ccccc3)CCCC2)ccc1OC(C)C | . | -7.3% | -4.7% | . | -11.9% | . | . | -1.7%
COc1cc(C2NC(=O)NC(C)=C2C(=O)OCc2ccc(C)cc2)cc(OC)c1OC (stereo not drawn) | . | 4.3% | 24.2% | . | -13.0% | . | . | 2.8%
COc1ccc(/C=N/Nc2nc(N3CCCC3)nc(N3CCCC3)n2)cc1O | ? | -18.8% | ? | -6.3% | -21.1% | -3.9% | -5.1% | 1.4%
CCOC(=O)c1cc(C(=O)Nc2ccc(C)c(F)c2)nn1C | 8.3% | -5.7% | -26.5% | -12.1% | 52.5%[activator] | 5.3% | -5.6% | -9.2%
Cc1cc(Cl)ccc1NC(=S)NCc1cccs1 | 2.1%[46.1 µM] | -20.8% | -6.8% | 1.8% | 29.0% | 4.0% | -1.8% | ?
CCOc1ccc(-c2cnc(NCc3cccc4ccccc34)n2CCOC)cc1 | ? | 12.8% | -42.7% | ? | -28.8% | . | . | -13.1%
Cn1ccnc1/C(=N\NC(=O)c1ccc(O)cc1)c1cccc([N+](=O)[O-])c1 | 15.6%[46.1 µM] | -17.4% | -2.8% | -19.5%[46.1 µM] | -4.9% | . | . | -0.4%
CC(=O)c1cccc(NC(=O)c2nc(-c3ccccc3)oc2C)c1 | -1.7%[46.1 µM] | 11.4% | . | ? | -23.8% | . | . | -12.6%
Nc1ccc2c3c(cccc13)-c1ccccc1-2 | ? | 408.2% | . | 22.7%[46.1 µM] | 0.0% | . | . | .
COC(=O)N1C(=O)[C@@](c2ccccc2)(C2CCCCC2)N1C(=O)OC | . | 5.4% | -17.9% | . | ? | . | . | -13.6%
CCCCOC(=O)CCc1nc2ccccc2[nH]1 | -2.3%&-2.3% | 3.2% | -12.5% | 4.7% | -8.0% | -3.2% | 2.9% | -7.6%
CC1CCN(S(=O)(=O)c2cn(CC(=O)N3CCN(C)CC3)c(=O)c3ccccc23)CC1 | -6.4% | -6.9% | 14.5% | 15.6% | -8.7% | -3.3% | 1.2% | 0.2%
c1ccc(CNc2ccc3ccccc3n2)nc1 | ? | -10.1% | -54.4% | ? | -4.1% | -13.1% | -14.2% | -1.5%
CCCNC(=O)COc1coc(CN2CCN(c3ccccc3F)CC2)cc1=O | . | 4.1% | -4.8% | . | 0.0% | . | . | 0.3%
C/C(=N/N=C(\C)c1ccccc1O)c1ccccc1O | ? | -2.3% | 4.5% | -2.2%[46.1 µM] | 0.0% | . | . | -1.3%
Cc1ccc(-n2c(O)c(C=NCCN(C)C)c(=O)[nH]c2=O)cc1 | -6.2%[46.1 µM] | -2.0% | 5.6% | 8.2% | -1.2% | -0.7% | -7.3% | 26.9%
CCCC(O)(CCN1CCOCC1)c1ccc(Br)cc1 (stereo not drawn) | -19.3% | -0.5%[3.69 µM] | 0.5% | 2.4% | -20.2% | 4.0% | 0.0% | 8.8%
O=C(Nc1ccc(Cl)cc1C(=O)c1ccccc1)c1ccco1 | ? | -0.5% | 13.2% | 0.5% | -3.0% | -4.4% | -0.3% | 5.2%
CC(C)(C)OC(=O)NCc1ccc(NC(=O)c2nc[nH]c2C(=O)N[C@@H](Cc2ccccc2)C(=O)OCc2ccccc2)cc1 | . | 4.6% | ? | . | ? | . | . | 0.7%
Nc1nc(NCC(=O)O)nc(N2CCCCCC2)c1[N+](=O)[O-] | ? | -2.8% | 3.5% | ? | 0.9% | . | . | 1.3%
S=c1[nH]nc(-c2cccnc2)n1/N=C/C=C/c1ccco1 | ? | 0.0% | 8.4% | 9.5% | -6.0% | . | . | 0.9%
COc1ccc(C(=O)Nc2ccccc2C(=O)NC(Cc2ccc(O)cc2)C(=O)NNC(=O)c2ccccc2)cc1 (stereo not drawn) | -15.8% | -5.0% | 29.1% | ? | 17.0% | -4.8% | -20.5% | -9.8%
CC(C)[C@H](NC(=O)N1CC(=O)Nc2ccccc21)C(=O)N[C@@H](Cc1ccccc1)C(=O)O | . | 1.9% | -4.5% | . | -18.5% | . | . | 0.8%
COc1cccc(OCc2nnc(SCC(=O)OCc3ccccc3)o2)c1 | 4.3% | -3.9% | -36.6% | 0.5% | 3.3% | 3.3% | -5.6% | -2.1%
O=C(CCN1C(=O)C2C3CCC(C3)C2C1=O)Nc1ccc(Cl)cc1Cl (stereo not drawn) | ? | 0.1% | 21.6% | . | 42.7%[activator] | . | . | 2.8%
COc1ccc(-c2cnn3c(N)c(S(=O)(=O)c4ccccc4)cnc23)cc1 | ? | -12.9% | 6.5% | ? | -25.0% | -4.4% | ? | -3.1%
Cc1ccc(NS(=O)(=O)c2ccc(Cl)c(C(=O)O)c2)cc1S(=O)(=O)N1CCOCC1 | 3.6% | -3.3% | -0.6% | -5.9% | -15.3% | -0.8% | 2.0% | -4.2%
O=C(Oc1c(Cl)cc(Cl)c2cccnc12)c1cccc([N+](=O)[O-])c1 | ? | 8.91µM* | -34.7% | ? | ? | -4.0% | -7.3% | -117.9%
CC(=O)NS(=O)(=O)c1ccc(N2C(=O)CC(Sc3nccc(C)n3)C2=O)cc1 (stereo not drawn) | . | 7.6% | 15.7% | . | -2.7% | . | . | 1.4%
CCOc1cc(N2CCOCC2)c(OCC)cc1NC(=S)NCCCOC | -5.0%[46.1 µM] | -1.2% | 2.8% | 0.9% | 0.0% | . | . | 1.4%
O=C(C=Cc1ccco1)N1CCOCC1 | 21.5%[46.1 µM] | 11.7% | . | 0.5%[46.1 µM] | 23.9% | . | . | .
COc1ccc(CCNS(=O)(=O)CC23CCC(CC2=O)C3(C)C)cc1OC (stereo not drawn) | . | -11.7% | 1.8% | . | -4.8% | . | . | -2.3%

Of the compounds above, these have a cyano group:
SMILES | Marburg entry inh | RE007 growth inh | NS1 function inh | LASV entry inh | 2A StopGo | Cruzain inh Det | Cruzain noTriton | SARS PLP yeast
CCOC(=O)C(C)Sc1nc(N2CCOCC2)c2c(c1C#N)CC(C)(C)OC2 (stereo not drawn) | ? | 5.8% | . | -17.5% | -23.2% | . | . | .
N#Cc1nc(-c2ccc(F)cc2)oc1NCc1ccccc1 | . | 3.2% | -0.6% | . | 8.0% | -6.4% | 1.9% | 8.8%
